Screening results (PubChem BioAssay)
CXCR6 inh – CXCR6 (human) receptor inhibition. O00574. CHO-K1 PathHunter CXCR6 beta-arrestin, luminescence. inhibition, % at 20 µM. 360,000 tested, 0.36% active; in the data active = inhibition above about 34%, passing the limit was not always enough;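 also: antagonist mode with CXCL16 agonist at 10 nM final; 0% = 10 nM CXCL16 with DMSO and 100% = unstimulated wells without agonist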
CCR6 antagonist – antagonists of human CCR6 receptor; 340,000 tested, 0.49% active; inhibition, % at 20 µM; CHO-K1 CCR6 PathHunter beta-arrestin, luminescence, CCL20-stimulated; P51684;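 active = compounds whose inhibition of the agonist-driven luminescence signal at 20 µM reaches about 50%, limit read from the data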;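 also: cells stimulated with CCL20 at 14 nM final; plate controls were DMSO with CCL20 for no effect and DMSO without agonist for full effect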
Target sequence (P51684 whole entry, looked up): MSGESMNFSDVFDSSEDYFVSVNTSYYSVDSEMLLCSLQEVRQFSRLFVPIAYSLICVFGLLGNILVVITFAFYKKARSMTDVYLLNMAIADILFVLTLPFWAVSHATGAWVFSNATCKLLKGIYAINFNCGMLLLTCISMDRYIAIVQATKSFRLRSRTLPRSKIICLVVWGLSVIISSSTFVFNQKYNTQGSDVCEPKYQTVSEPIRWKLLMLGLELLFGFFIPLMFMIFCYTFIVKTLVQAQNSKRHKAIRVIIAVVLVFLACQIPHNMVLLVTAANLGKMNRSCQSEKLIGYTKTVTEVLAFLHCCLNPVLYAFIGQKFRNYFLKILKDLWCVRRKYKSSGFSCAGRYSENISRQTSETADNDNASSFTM
A3A deaminase – human APOBEC3A DNA deaminase inhibition. P31941. recombinant A3A, FAM/TAMRA ssDNA deamination fluorescence. inhibition, % at 20 µM. 330,000 tested, 0.41% active;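 active = at least 40% inhibition at 20 µM here, with at most 30% in a related deaminase screen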;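 also: plate controls were A3A with DMSO for no effect and wells lacking A3A enzyme for full effect; some results filed as inactive read as strong as hits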
EBI2 block – EBI2 (human) antagonism; P32249; EBI2 beta-arrestin recruitment, luminescence, 7a,25-OHC stimulated; inhibition, % at 5 µM; 360,000 tested, 0.81% active; in the data active = inhibition above about 38%;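 also: enzyme fragment complementation signal reports receptor beta-arrestin coupling in cells; 0% = agonist plus DMSO wells and 100% = wells without agonist; some results beyond the cut were filed as inactive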
* hit, by the source's call; · = no result given; & = joins results of further samples. A portion of the library, so the mix of outcomes need not match the whole.

#	compound	CXCR6 inh	CCR6 antagonist	A3A deaminase	EBI2 block
1	CC(CN(C)C1CCN(C)CC1)c1ccccc1 (centres undefined)	-1	18	-5	4
2	C[N+]1(C)C2CC(OC(=O)[C@H](CO)c3ccccc3)CC1C1OC12 (some centres undefined)	-2	-2	0	3
3	CC[C@@H](CO)NC(=O)[C@@H]1C=C2c3cccc4c3c(cn4C)C[C@H]2N(C)C1	-13&-14	-7&5	5&1&-2	-2&-15
4	COc1cc(CN=C(C)c2c(O)n(C)c(=O)n(C)c2=O)cc(OC)c1	0	8	1	-3
5	O=C1CN=C(c2ccccc2)c2cc(Cl)ccc2N1	7	12	5	-7
6	O=[N+]([O-])c1ccccc1Cl	-5	-10	-5	-7
7	COC(=O)C1=C(c2ccccc2OCc2ccccc2)C[C@@H]2CC[C@H]1N2C(=O)NCCOc1ccccc1Cl	18	5	-5	26
8	CC(Cc1ccccc1)NCCC(c1ccccc1)c1ccccc1 (centres undefined)	-10	16	1	-2
9	COc1ccc(C2NCc3ccc4c(c3-n3cccc32)OCO4)cc1OC (centres undefined)	0	-2	-6	3
10	CC(=O)C1CCC2C3CCC4CC(O)CCC4(C)C3C(=O)CC12C (centres undefined)	-9	-7	·	-12
11	C[C@]12CC[C@H](O)CC1=CC[C@@H]1[C@@H]2CC[C@]2(C)C(=O)CC[C@@H]12	-1	1	-1	4
12	O=c1[nH]c2ccccc2n1C1CCN(CCCC(c2ccc(F)cc2)c2ccc(F)cc2)CC1	16	24	3	19

Reprinted at random: 6 compounds from above
#	compound	CXCR6 inh	CCR6 antagonist	A3A deaminase	EBI2 block
5	O=C1CN=C(c2ccccc2)c2cc(Cl)ccc2N1	7	12	5	-7
2	C[N+]1(C)C2CC(OC(=O)[C@H](CO)c3ccccc3)CC1C1OC12 (some centres undefined)	-2	-2	0	3
12	O=c1[nH]c2ccccc2n1C1CCN(CCCC(c2ccc(F)cc2)c2ccc(F)cc2)CC1	16	24	3	19
7	COC(=O)C1=C(c2ccccc2OCc2ccccc2)C[C@@H]2CC[C@H]1N2C(=O)NCCOc1ccccc1Cl	18	5	-5	26
1	CC(CN(C)C1CCN(C)CC1)c1ccccc1 (centres undefined)	-1	18	-5	4
10	CC(=O)C1CCC2C3CCC4CC(O)CCC4(C)C3C(=O)CC12C (centres undefined)	-9	-7	·	-12

Individual results from the entries so far.
entry 10 – EBI2 block = -12
entry 5 – CCR6 antagonist = 12
